S aureus helic = inhibitors of S. aureus replicative helicase, primary screen, biochemical, fluorescence unwinding readout. replicative DNA helicase (DnaC/DnaB), Staphylococcus aureus. purified S. aureus helicase, fluorescence unwinding assay; about half of the hits fall short of the stated cut. inhibition, %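 (tested at about 80 µM)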. 0.05% of 120,000 active. AID 485395, 2010;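 active = both duplicates at 50% or more, or one of them with a favoured structure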;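 also: 0% = mean of negative control wells and 100% = mean of positive control wells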
MgrA-DNA mod = S. aureus MgrA activity modulators, primary screen, biochemical, S. aureus Newman, fluorescence polarization; MgrA-DNA binding; inhibition, %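 (about 10 µg/mL by stock and volumes)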; 0.13% of 84,000 active;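 active = above 50% in either of two replicates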;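 also: 0% = protein plus DNA without compound and 100% = DNA alone without protein; higher means less MgrA bound to DNA so lower polarization; one replicate is shown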
The depositor's hits bear a star; · = not tested or not shown.

SMILES	S aureus helic	MgrA-DNA mod
CCCn1c(SC(C(=O)NC(=O)NC)c2ccccc2)n[nH]c1=O (stereo unspecified)	10	·
CC1CC(C)CN(S(=O)(=O)c2ccc(Cl)c(C(=O)O)c2)C1 (stereo unspecified)	-1	·
COc1ccc(Cl)cc1C(=O)N1CCCC1	-1	0.2
O=C(NC(Cc1ccccc1)C(=O)O)C1CCCCC1 (stereo unspecified)	10	-0.8
CC1(C)CC(=O)C2=C(C1)Nc1ccc3ccccc3c1C2c1cccnc1 (stereo unspecified)	-14	0.8
Cc1ccc(NC(=O)CCSc2nnc(C)o2)cc1	16	5.0
N#C/C(=C\c1cn(-c2ccccc2)nc1-c1cccs1)c1cccc(C#N)c1	20	3.6
Oc1cccc(-c2ccc3ccccc3n2)c1	·	-2.9
O=C(COc1ccccc1Cl)N(Cc1ccco1)Cc1ccccc1F	-23	·
O=C1CCN(CC(=O)Nc2ccc(Cl)cc2C(F)(F)F)CC1	11	·
CCn1c(COC(=O)c2c(NC(C)=O)sc(C)c2C)nc2cc(S(=O)(=O)N(C)C)ccc21	12	·
CN(C)c1ccc(/C=C2/C(=O)NC(=O)N(C(C)(C)C)C2=O)cc1	-16	27
CCC(C)n1c(SCc2ccccc2Cl)nc2ccsc2c1=O (stereo unspecified)	-11	0.5
CCN(C(=O)c1cc2cc(OC)ccc2oc1=O)C1CCCCC1	-26	·
CC(OC(=O)c1cccn1C)C(=O)Nc1ccc(Cl)cc1 (stereo unspecified)	5	·
CC(Sc1nc(N2CCOCC2)c2c(c1C#N)CC(C)(C)OC2)C(=O)Nc1ccccc1 (stereo unspecified)	-12	1.2
CC(C)CCN1CCC(CNS(=O)(=O)c2ccc(-c3cc(C(F)(F)F)no3)s2)CC1	6	·
Cc1ccccc1OCCN1C(=O)NC(C)(c2ccccc2)C1=O (stereo unspecified)	23	·
Cc1cc(C)c2c(n1)CC(C)(C)CC2=O	9	·
COc1ccc2[nH]c(=O)c(CN(CCCN3CCOCC3)C(=O)NCc3ccccc3)cc2c1	-4	-0.3

Filtered by structure, those above with a Cl atom (six)
SMILES	S aureus helic	MgrA-DNA mod
CC1CC(C)CN(S(=O)(=O)c2ccc(Cl)c(C(=O)O)c2)C1 (stereo unspecified)	-1	·
COc1ccc(Cl)cc1C(=O)N1CCCC1	-1	0.2
O=C(COc1ccccc1Cl)N(Cc1ccco1)Cc1ccccc1F	-23	·
O=C1CCN(CC(=O)Nc2ccc(Cl)cc2C(F)(F)F)CC1	11	·
CCC(C)n1c(SCc2ccccc2Cl)nc2ccsc2c1=O (stereo unspecified)	-11	0.5
CC(OC(=O)c1cccn1C)C(=O)Nc1ccc(Cl)cc1 (stereo unspecified)	5	·

Other entries.
SMILES	S aureus helic	MgrA-DNA mod
Cc1sc2nc(-c3cccs3)oc(=O)c2c1C	18	3.7
CN(Cc1ccccc1)C(=O)c1ccc2c(c1)OCO2	14	0.6
Cn1c(=O)c2c(nc(NCc3ccc4c(c3)OCO4)n2Cc2ccccc2Br)n(C)c1=O	·	0.9
CCN1CCN(c2ccc(NC(=O)COc3ccccc3)cc2)CC1	7	2.5
Cn1nccc1C(=O)OCC(=O)Nc1ccccc1Cl	6	-0.2
CCOC(=O)c1cc(-c2csc(CS(C)(=O)=O)n2)on1	·	-1.9
S=C(SN1CCOCC1)N1CCOCC1	5	1.8
CCN(CC)C(=O)CSc1nc(-c2ccccc2)cc(=O)[nH]1	6	-0.2
O=C(COc1ccc(Cl)cc1)NCc1nnc(SC/C=C/c2ccccc2)o1	-16	·
O=C(O)/C=C/C(=O)N(Cc1ccccc1)Cc1ccco1	1	-5.4
Cc1oc(-c2ccccc2)nc1C(=O)OCc1nc2ccccc2c(=O)n1CC#N	23	·
COCc1c(C(=O)OC)nnn1-c1nonc1N	15	·
N#CCSc1ccc2nnc(-c3ccncc3)n2n1	6	0.2
COCCNS(=O)(=O)c1ccc(S(=O)(=O)N2CCCCC2)cc1	-1	3.1
COC(=O)c1ccc(COC(=O)/C=C/c2cccs2)o1	9	·
O=C(O)CNC(=O)CC1S\C(=N/N=C/C=C/c2ccccc2)N(Cc2ccco2)C1=O (stereo unspecified)	11	·
O=c1[nH]c2ccc(S(=O)(=O)NC3CCCCC3)cc2[nH]1	13	-3.5
Cc1cc(OCOc2ccc(Cl)c(C)c2)ccc1Cl	·	3.1
CC(=O)N1CCN(c2ccccc2NC(=O)COc2ccccc2)CC1	9	0.4
FC(F)(F)c1cc(-c2cccs2)nc(-n2cc(Br)cn2)n1	-30	·
CC(C)NC(=O)c1cc(C(C)C)on1	6	0.7
Cc1c(C)c(C)c(C(O)c2ccccc2)c(C)c1C (stereo unspecified)	·	0.8
O=C(O)c1cccc(S(=O)(=O)/N=C2/C=C(NS(=O)(=O)c3ccccc3)C(=O)c3ccccc32)c1	15	12
CCOC(=O)CN1C(=O)S/C(=C/c2ccc3c(c2)n(C)c(=O)n3C)C1=O	13	-0.6
CCN(C(=O)N(C)C)c1ccccc1C	10	-0.5
COCCCn1c(C)nnc1SCc1ccc(C(C)(C)C)cc1	18	-1.3
CS(=O)(=O)N1CCSC1c1ccc(Cl)cc1Cl (stereo unspecified)	-8	2.2
CC1(C)Oc2ccc3ccc(=O)oc3c2C/C1=N/O	-28	·
Cn1nc(C(C)(C)C)cc1C(=O)NCc1ccc2c(c1)OCO2	·	-1.0
CCCn1c(=O)c(-c2nc3ccccc3[nH]2)c(O)c2ccccc21	2	-1.1
C=CCn1c(SCC(=O)NCc2cccnc2)nc2sc3c(c2c1=O)CCCC3	·	-1.2
c1ccc(C2=NCCCN2)cc1	15	·
COc1ccc(N=C2C(=O)N(c3ccccc3)c3ccccc32)cc1	·	3.3
CN(C)c1ccc(-n2cccc2/C=N/n2cnnc2)cc1	9	-0.2
O=C(Oc1ccc(F)cc1)/C(=C\c1cccs1)c1ccsc1	·	1.0
CCOC(=O)C1(CCSC)NC(c2cccs2)C2C(=O)N(CC)C(=O)C21 (stereo unspecified)	7	-30
O=N/C(C(=O)c1ccccc1)=C(\O)c1ccccc1	9	0.3
CCOc1ccc2c(c1)c(=O)c1cccnc1n2Cc1cccc(OC)c1	33	·
Nc1ccc2c3c(cccc13)C(=O)NC2=O	·	0.1
Cc1c(O)ccc(/C(Cc2ccc3ccccc3n2)=N\N)c1O	-3	·
S=C(c1ccccn1)N1CCN(C(=S)c2ccccn2)CC1	-1	·
CCOc1ccc(CCN=C(CC)C2=C(O)CCCC2=O)cc1OCC	17	2.8
Clc1ccc(-c2noc3ncnc(NC4CC4)c23)cc1	-9	·
Cc1ccc(N(CC(=O)Nc2ccc(C)c(C)c2)S(=O)(=O)c2c(C)nn(C)c2C)cc1	15	·
O=C(OCc1ccccc1)c1cccc(-c2nnc(-c3ccccc3)o2)c1	5	0.7
CCCCNC(=S)NCCCC	·	-0.2
O=C(Nc1ccccc1)N(Cc1c[nH]c2ccccc12)C1CCCC1	-4	·
CS(=O)(=O)c1nc2ccccc2n1C/C=C/c1ccccc1	3	·
Cc1ccc(C)n1NC(=O)c1cccc(Br)c1	7	1.1
O=C(c1ccco1)N1CCCSC1=Nc1ccccc1	12	·

An excerpt from above in order of molecular weight, largest number first:
SMILES	S aureus helic	MgrA-DNA mod
O=C1CCN(CC(=O)Nc2ccc(Cl)cc2C(F)(F)F)CC1	11	·
CS(=O)(=O)c1nc2ccccc2n1C/C=C/c1ccccc1	3	·
O=C(c1ccco1)N1CCCSC1=Nc1ccccc1	12	·
CN(Cc1ccccc1)C(=O)c1ccc2c(c1)OCO2	14	0.6

Additional structures.
SMILES	S aureus helic	MgrA-DNA mod
N#CC1=C(N)OC2=C(C(=O)CCC2)C1c1cccnc1 (stereo unspecified)	0	-3.2
Cc1nc2nc(SCC(=O)NCC3COc4ccccc4O3)nn2c(C)c1Cc1ccccc1 (stereo unspecified)	0	·
COc1ccc(CNS(=O)(=O)c2ccc(-c3cc(C)no3)cc2)cc1	2	·
CCc1ccccc1NC(=O)c1noc2c1CCCCC2	-8	·
Cc1[nH]c2ccc(F)cc2c1CCN(Cc1ccco1)C(=S)NC1CCCCC1	17	1.1
O=C1CC(Sc2nnc(-c3ccccc3O)o2)C(=O)N1c1ccc(Br)cc1 (stereo unspecified)	10	·
C=CCn1c(=C(C#N)C#N)s/c(=C\c2ccccc2OC(F)F)c1=O	-5	·
O=C(CSc1nc2ccccc2o1)NCCc1ccccc1	10	0.3
CC(C)(C)C1CCC(C(=O)O)CC1 (stereo unspecified)	16	·
COc1cccc(/C=N/NC(=O)COc2c(C)cccc2C)c1O	3	-1.1

Later entries:
Structure	S aureus helic	MgrA-DNA mod
CC1(C)NCSC1C(=O)O (stereo unspecified)	·	-0.2
CC1=C/C(=N/NC(=O)COc2cc(C)ccc2C(C)C)CC1	-10	·
CC(=O)Nc1ccc(Sc2ccccc2C(=O)O)c(C(=O)O)c1	·	-2.9
O=c1c(=O)n(-c2ccccc2)ccn1Cc1ccccc1	12	·
Cc1ccc(OCc2nnc(SCC(=O)NCc3ccccc3)n2-c2ccccc2)c2c1CCC2	·	-3.1
Nc1nnc(SCc2ccccc2)s1	21	-3.3
Cc1cccc(C)c1NC(=O)c1c(C(F)(F)F)ccnc1SCCN(C)C	·	1.1
O=C(CCC1COc2ccccc2O1)N1CCN(Cc2ccccc2)CC1 (stereo unspecified)	21	1.5
COc1ccc(C(=O)NC23CC4CC(CC(C4)C2)C3)cc1	·	-1.5
COCCOC(=O)c1c(C)oc2cc(Br)c(OC(C)C(=O)OC)cc12 (stereo unspecified)	2	·
O=C(NCCCN1CCOCC1)c1cc2nc(-c3ccc(Cl)c(Cl)c3)cc(C(F)(F)F)n2n1	·	-4.8
O=S(=O)(c1ccccc1)N1CCNCC1	10	-1.4
O=C(CSc1nc(-c2ccccc2)cs1)Nc1ccnn1C1CCCC1	14	·
CC(C)(Cc1cc(=O)c2ccccc2[nH]1)C1CCCCC1	6	·
O=C(O)c1cccc(N2C(=O)CSC2c2ccccc2)c1 (stereo unspecified)	8	1.2
C=CCOc1ccc(/C(O)=C2/C(=O)C(=O)N(CC3CCCO3)C23C(=O)N(C)c2ccccc23)cc1 (stereo unspecified)	13	-2.2
Cc1ccccc1C1NC(c2ccccc2C)C(C)C(=O)C1C (stereo unspecified)	5	1.8
Cn1c(=O)c(=O)n(C)c2cc(S(=O)(=O)N3CCCC3C(=O)NCc3cccs3)ccc21 (stereo unspecified)	7	·
COC(OC)(OC)c1cc2ccccc2c(=O)[nH]1	-16	·
O=C(CC1N=C2c3ccccc3N=C(SCc3ccc(F)cc3)N2C1=O)NCc1ccco1 (stereo unspecified)	10	·
Cc1cc(-n2c(C)cc(C(=O)COC(=O)c3ccc(C)c(NC(=O)c4ccco4)c3)c2C)no1	-11	·
O=C(CCN1C(=O)NC2(CCCC2)C1=O)Nc1nc2ccccc2[nH]1	-15	·
C1CN=C(NC23CC4CC(CC(C4)C2)C3)C1	2	·
O=C(c1ccco1)N1CCc2sccc2C1c1ccc(OC(F)(F)F)cc1 (stereo unspecified)	·	1.7
Cc1ccc(Nc2nc(N)nc(CSc3nnc4n3CCCCC4)n2)cc1	-10	·
COc1cc(/C=C2/C(=O)ON=C2c2ccccc2)ccc1O	8	6.3
CCOc1cccc(C2C(C(=O)c3ccc(C)o3)=C(O)C(=O)N2Cc2ccccc2)c1 (stereo unspecified)	-2	·
COC(=O)C12CC3CC(C1)CC(C(=O)OC)(C3)C2	·	-2.5
CCCNCc1cc(OCC)c(OCC(N)=O)cc1Br	6	4.0
COc1ccc(C2Nc3ccccc3C(=O)N2Cc2ccco2)cc1COc1cc(C)c(Cl)cc1C(C)C (stereo unspecified)	·	0.3
C=CCSc1nnc2c(n1)OC(c1ccccn1)N(C(=O)CC)c1ccccc1-2 (stereo unspecified)	4	·
CCc1nn2cc(-c3ccc(C)cc3)nc2s1	20	·
CC(=O)Nc1ccc(N=Cc2ccc(C)cc2)cc1	5	-0.5
O=C1CSc2ccc(C(=O)N3CCN(S(=O)(=O)c4ccc5c(c4)CCC5)CC3)cc2N1	6	·
Cc1cc(Br)c(NC(=S)NC(=O)C(C)(C)C)c(Br)c1	·	0.4
NN1C(=O)/C(=C/c2cccs2)SC1=S	15	·
C=C(C)[C@@H]1Cc2cc3ccc(=O)oc3cc2O1	0	·
CC1(C)CC(=O)C2=C(C1)N(Cc1ccccc1)C(N)=C(C#N)C21CCOCC1	-3	5.0
Oc1c(C(c2ccccn2)N2CCN(c3ccccn3)CC2)ccc2cccnc12 (stereo unspecified)	14	·
CN(c1ccnc(C(=O)NC2CCCC2)c1)S(=O)(=O)c1ccccc1	-24	·
CN=C1S/C(=C\c2cn(CC(=O)NCc3ccco3)c3ccccc23)C(=O)N1C	-11	0.0
CCc1ccnc(NS(=O)(=O)c2cccs2)c1	·	-2.1
O=C1NC(=S)N/C1=C/c1ccc(OCc2ccc(Cl)cc2Cl)cc1	·	2.4
Nc1nnc(SCC(=O)c2cccs2)s1	-18	·
CC(=O)Nc1ccc(S(=O)(=O)N(C2=NCC(C)S2)c2ccccc2)cc1 (stereo unspecified)	2	1.3
Cc1nc(CSCC(=O)O)cs1	3	·
O=C(Sc1cccs1)c1cncc(C#Cc2ccccc2)c1	·	6.2

Assay outcomes from PubChem.

Some of the compounds tested, so the mix of outcomes need not match the whole.
